# CBX7 inh: CBX7 chromodomain binding inhibitors, primary screen, biochemical, AlphaScreen; normalised signal (fraction of DMSO) (no concentration beside the values); Chromobox protein homolog 7 (Homo sapiens), O95931; 66,000 tested, 1.1% active; AlphaScreen His6-CBX7 / biotin-H3K27me3 peptide binding; hits give low values; in the data active = normalised signal below about 0.5;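 also: 100 nL library stock added to about 20 µL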
# Target sequence (O95931 whole entry, looked up): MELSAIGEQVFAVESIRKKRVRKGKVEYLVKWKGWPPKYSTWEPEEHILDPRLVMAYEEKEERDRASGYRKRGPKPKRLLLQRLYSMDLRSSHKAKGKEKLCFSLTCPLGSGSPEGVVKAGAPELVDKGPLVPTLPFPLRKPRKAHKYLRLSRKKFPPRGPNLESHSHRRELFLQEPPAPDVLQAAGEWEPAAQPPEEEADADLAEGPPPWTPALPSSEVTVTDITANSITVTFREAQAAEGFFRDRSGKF
# CBX7 inh z-score: further read-out of CBX7 inh, marked with its call; z-score; measured here: z-score of CBX7 signal; some inactives read as strong as hits; reference of the scale not given here;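 same signal on another scale; lower means less binding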
# * marks the source's active call; other numbers are inactive results; & = joins results of further samples. Some of the compounds tested. The share of hits here may be higher or lower than overall.
# Value order – CBX7 inh z-score, CBX7 inh
- COc1ccc(-c2nnc(NC(=O)c3cccc(F)c3)s2)cc1OC
  0.66, 1.2
- CCc1nnc(NC(=O)c2cccc(Cl)c2)s1
  0.2, 1.1
- Cc1c(C(=O)NCc2ccc(F)cc2)sc2ncn(CC(=O)Nc3cccc(C(F)(F)F)c3)c(=O)c12
  0.19, 1
- O=C1CN(C(=O)C2CC2)C(c2ccc(F)cc2)c2cc(Br)ccc2N1 (stereo not drawn)
  -2.6, 0.81
- N#Cc1ccccc1NC(=O)CC1Sc2ccccc2NC1=O (stereo not drawn)
  4.6, 1.2
- O=C(NCc1cccs1)c1ccc2c(c1)N(Cc1ccc(Cl)cc1)C(=O)c1ccccc1S2=O (stereo not drawn)
  -0.8, 0.98
- O=C(C1CCC1)N1CCc2cc(S(=O)(=O)NCCN3CCN(Cc4ccccc4)CC3)ccc21
  0.36, 1
- Cc1c(C(=O)NCc2ccccn2)oc2ccc(S(=O)(=O)N3CCC(C)CC3)cc12
  -1.4, 0.95
- CC(C)(c1ccccc1)c1ccc(O)c(-n2nc3ccccc3n2)c1
  0.6, 1.1
- CCC(=O)N1CCCc2cc(S(=O)(=O)N3CCN(c4cc(Cl)ccc4C)CC3)ccc21
  -1.5, 0.92
- COc1cccc(NC(=O)CSc2nnc(Cc3cc(=O)[nH]c(=O)[nH]3)n2-c2cccc(C)c2)c1
  0.34, 1
- CC(CC(=O)NCCc1ccc(Cl)cc1)CC1=NS(=O)(=O)c2ccccc2N1 (stereo not drawn)
  -0.98, 0.96
- COc1ccc(-c2nc(N3CCN(c4ccc(F)cc4)CC3)c3ccccc3n2)cc1OC
  -3.8, 0.82
- CC1(C)CC(=O)N(CC(=O)N2CCN(c3ccccn3)CC2)c2ccccc2S1(=O)=O
  -1.1, 0.96
- CC(=O)NCCCc1nc2ccccc2n1Cc1c(F)cccc1Cl
  0.52, 1
- Cc1ccn2c(NC3CCCCC3)c(-c3ccncc3)nc2c1
  0.19, 1.1
- CCc1ccc(NC(=O)C(Cc2ccccc2)NS(=O)(=O)c2cccc3cccnc23)cc1 (stereo not drawn)
  -1.2, 0.86
- CCCCOc1ccc(C(=O)N(Cc2ccc(N(C)C)cc2)C2CCS(=O)(=O)C2)cc1 (stereo not drawn)
  -1.9, 0.79
- Cn1nc(-c2ccc(OCC(N)=O)cc2)c2ccccc2c1=O
  2.1, 1.1
- COc1ccc(CNC(=O)C2CCN(S(=O)(=O)c3ccc(C)cc3)CC2)cc1
  0.76, 1

# Value order – CBX7 inh z-score, CBX7 inh
- CCCn1c(C(C)NC(=O)c2cccc(C)c2)nc2ccccc21 (stereo not drawn)
  -1.1, 0.95
- COc1ccc(CCNC(=O)C2c3ccccc3C(=O)N2C2CCCC2)cc1OC (stereo not drawn)
  -1.2, 0.9
- COc1ccc(NC2=NS(=O)(=O)c3ccccc32)cc1
  -0.24, 0.94
- COc1ccccc1N1CCN(c2nc(-c3ccccc3O)nc3ccccc23)CC1
  -2.8, 0.75
- COCCCNC(=O)c1sc2ncn(CC(=O)Nc3ccc(C)c(Cl)c3)c(=O)c2c1C
  -0.71, 0.98
- COC(CNC(=O)c1ccc2c(c1)ncn2-c1ccc(F)cc1F)OC
  -2.3, 0.82
- COC(=O)c1ccc2c3c(onc13)-c1ccccc1C2=O
  -2.1, 0.93
- CCc1ccc(-c2nc(CN3CCCC(C(=O)NCCOC)C3)c(C)o2)cc1 (stereo not drawn)
  -2, 0.83
- COCCCNC(=O)Cn1nc(-c2ccccc2)ccc1=O
  0.57, 1
- CC1CCCCN1CCCNC(=O)Cn1nc(-c2ccccc2)ccc1=O (stereo not drawn)
  -0.19, 0.99
- COc1ccc(N2CCN(C(=O)CNC(=O)Cn3cnc4ccccc4c3=O)CC2)cc1
  -0.49, 0.98
- COc1ccc(-c2nc3cc(C)ccn3c2NC(=O)c2c(F)cccc2Cl)cc1
  1.7, 1.2
- COC(=O)c1c(NC(=O)COc2cc(C)c(Cl)c(C)c2)sc2c1CCCC2
  0.57, 1
- O=S(=O)(c1ccc(-c2csc(Nc3ccc(Cl)c(Cl)c3)n2)cc1)N1CCCC1
  -2.8&0.56, 0.85&1
- Cc1ccc(NC(=O)CN(C)S(=O)(=O)c2cccc3cccnc23)c(Cl)c1
  -1.4, 0.88
- O=C(Nc1ccc2c(c1)OCO2)c1cc(-c2ccc3c(c2)OCO3)on1
  1.7, 1.2
- CC1CCCCN1C(=O)c1cc(-c2ccc3c(c2)OCO3)on1 (stereo not drawn)
  -0.38, 0.95
- CC(=O)N1CCC(N(C(=O)Nc2ccc(Cl)cc2)C2CCCC2)CC1
  1, 1
- O=c1oc2ccc(Cl)cc2cc1-c1csc(Nc2ccccc2)n1
  9.9, 1.4
- COC(=O)c1c(NC(=O)C2CSC(c3ccncc3)=N2)sc(C)c1C (stereo not drawn)
  0.65, 1

# Value order – CBX7 inh z-score, CBX7 inh
- CCC(Sc1nc2ccccc2o1)C(=O)Nc1nnc(C)s1 (stereo not drawn)
  -0.85, 0.78
- CCCNC(=O)c1ccc2c(c1)N(Cc1ccc(Cl)cc1)C(=O)c1ccccc1S2(=O)=O
  -0.82, 0.97
- CCn1c(C(C)NC(=O)C(C)(C)C)nc2ccccc21 (stereo not drawn)
  2, 1.2
- O=C(O)c1ccccc1C(=O)NCCc1c(C(=O)O)[nH]c2ccc(Br)cc12
  -0.031, 1
- CCCCN(CC)CCNC(=O)c1cc2c(-c3ccc(OC)c(OC)c3)nn(C)c2s1
  -1.9, 0.85
- Cc1ccc2c(c1)N(C(C)C(=O)NCc1ccccn1)C(=O)CO2 (stereo not drawn)
  -10*, 0.25*
- COC(=O)c1ccc(NC(=O)Cn2cnc3c(nnn3Cc3ccc(F)cc3)c2=O)cc1
  0.87, 1.1
- CCCCCn1c(=O)[nH]c2cc(C(=O)N3CCN(c4cccc(OC)c4)CC3)ccc2c1=O
  0.32, 1
- Cc1c(NC(=O)c2cc3ccccc3o2)cccc1-c1nc2ccccc2s1
  1.1, 1.1
- CCCCCNC(=O)c1c[nH]c2ccc(S(=O)(=O)N(C)c3ccccc3OCC)cc2c1=O
  0.27, 1
- O=c1oc2ccc3ccccc3c2cc1-c1nnc(Nc2ccccc2F)s1
  -1, 0.94
- CC(C)N(Cc1nc(-c2ccc(Cl)cc2)no1)C(=O)c1ccc(F)cc1
  -0.28, 0.97
- CN(Cc1ccccc1)C(=O)C1CCCN1S(=O)(=O)c1ccc2c(c1)n(C)c(=O)c(=O)n2C (stereo not drawn)
  2.4, 1.3
- CC(C)c1ccc(NC(=O)Cc2c(C(=O)O)[nH]c3ccccc23)cc1
  -1.6, 0.93
- Cc1ccc2c(c1C)NC(=O)CC2c1ccc(F)cc1 (stereo not drawn)
  -0.59, 0.95
- CCCS(=O)(=O)N1CCCC(C(=O)NCc2ccc3c(c2)OCO3)C1 (stereo not drawn)
  0.65, 1
- Cc1c(C(=O)NCCN2CCCC2)oc2ccc(S(=O)(=O)N3CCOCC3)cc12
  0.26, 1
- COc1ccc(S(=O)(=O)Nc2cccc(-c3cn4c(C)cccc4n3)c2)cc1
  -0.46, 0.98
- CC(C)Cc1cc2c(c(N)n1)c(=O)oc1ccccc12
  2.1, 1.2
- Cc1ccc(-c2nc3ncccc3o2)cc1NC(=O)COc1ccc(Cl)cc1
  1.1, 1

# Value order – CBX7 inh z-score, CBX7 inh
- CCCCN(C)CCNS(=O)(=O)c1cc(Br)cc2c1N(C(=O)CC)CC2
  0.75, 1
- CN1C(=O)c2ccccc2Sc2ccc(C(=O)NCCCN3CCOCC3)cc21
  0.29, 1
- CCCn1c(CCCNC(=O)CC)nc2ccccc21
  0.52, 1
- COCCn1c(=O)[nH]c2cc(C(=O)N3CCN(c4ccccc4)CC3)ccc2c1=O
  0.54, 1
- COc1cccc(-c2nnc(SCC(=O)N3CC(C)CC(C)C3)o2)c1 (stereo not drawn)
  3.8, 1.3
- CCc1ccc(CNC(=O)CN2C(=O)C(CC)Sc3ccccc32)cc1 (stereo not drawn)
  1.2, 1
- CCN(CC)c1cc(C)c2cc(NC(=O)c3ccccc3Cl)ccc2n1
  0.52, 1
- COc1ccc(Cl)cc1C(=O)Nc1ccc(C)c(-c2nc3ncccc3o2)c1
  1.2, 1.1
- Cn1c2ccccc2n2cc(C34CC5CC(CC(C5)C3)C4)nc12
  0.44, 1
- CCn1c(C(=O)N2CCC(C(=O)NCCC3=CCCCC3)CC2)cc2sccc21
  -1.1, 0.75
- COc1ccc(Nc2nc(N3CCCCC3)nc3ccccc23)c(OC)c1
  11, 1.4
- COc1ccc(-c2n[nH]c(C)c2-c2ccc3c(c2)OCCCO3)c(O)c1
  -0.96*, 0.45*
- CCOc1ccc2nc(N3CCCC(C(=O)NC4CCCC(C)C4C)C3)sc2c1 (stereo not drawn)
  -1.5, 0.94
- CCOC(=O)N1CCC(NC(=O)c2nc(-c3cccc(C)c3)oc2C)CC1
  -0.6, 0.96
- CCOc1cc2[nH]c(=O)n(CCCC(=O)NCCc3ccc(OC)c(OC)c3)c(=O)c2cc1OCC
  -0.24, 0.99
- O=C(NC1CC1)c1cc2c(s1)CS(=O)(=O)C2
  -0.76, 0.81
- Cc1cc(Cl)ccc1OCC(=O)Nc1sc2c(c1C#N)CCCCC2
  2.9, 1.1
- CCN(CCCNS(=O)(=O)c1ccc2c(c1)CCN2C(C)=O)Cc1ccccc1
  0.32, 1.1
- O=C(NCCc1ccccc1)C1CCCN(S(=O)(=O)c2cccc3nonc23)C1 (stereo not drawn)
  -0.69, 0.83
- Cc1ccc(CCNC(=O)CCc2cn(Cc3ccccc3)c3ccccc23)cc1
  -1.1, 0.96

# Entries of single compounds from above. Values in the order: CBX7 inh z-score, CBX7 inh
# `COc1ccc(-c2n[nH]c(C)c2-c2ccc3c(c2)OCCCO3)c(O)c1` reads -0.96*, 0.45*
# `CCOc1ccc2nc(N3CCCC(C(=O)NC4CCCC(C)C4C)C3)sc2c1` (stereo not drawn) reads -1.5, 0.94
# `CCOC(=O)N1CCC(NC(=O)c2nc(-c3cccc(C)c3)oc2C)CC1` reads -0.6, 0.96
# `Cc1ccc(CCNC(=O)CCc2cn(Cc3ccccc3)c3ccccc23)cc1` reads -1.1, 0.96
# `COCCn1c(=O)[nH]c2cc(C(=O)N3CCN(c4ccccc4)CC3)ccc2c1=O` reads 0.54, 1

# (continued)
# Value order – CBX7 inh z-score, CBX7 inh
- COc1ccc(NC(=O)C2CCCN(S(=O)(=O)c3cccs3)C2)c(OC)c1 (stereo not drawn)
  -0.16, 0.99
- CC1(C)CC(=O)N(CC(=O)NC2CCCCCC2)c2ccccc2S1(=O)=O
  -0.025, 1
- COC(=O)c1ccc(C(=O)Nc2ccc3nc(-c4ccccc4)[nH]c3c2)cc1
  -0.32, 0.98
- CCOc1ccc(NC(=O)N2CCC(n3c(=O)[nH]c4ccccc43)CC2)cc1
  1.1, 1
- Cc1ccc(-c2csc3ncn(CC(=O)Nc4ccc(Cl)cc4)c(=O)c23)cc1
  0.26, 1
- CC1CCN(C(=O)Cn2ncc3c2-c2ccccc2OC3)CC1
  -0.0033, 1
- CC(=O)Nc1ccc(N2C(=O)CC(NCCc3ccccn3)C2=O)cc1 (stereo not drawn)
  -3.6, 0.71
- Cc1cc(N2CCCCC2)nc2ccc(NC(=O)CCC(=O)N3CC(C)CC(C)C3)cc12 (stereo not drawn)
  0.7, 1
- O=C(Nc1nc(-c2cc(Cl)ccc2Cl)cs1)c1ccc(S(=O)(=O)N2CCCC2)cc1
  0.14, 1
- N#Cc1nc(COc2ccccc2Cl)oc1N1CCCCC1
  -11, 0.75
- CCOc1ccc(C(=O)Nc2cccc(-c3nc4ccc(C)cc4o3)c2)cc1
  2, 1.5
- O=C(NCCCN1CCOCC1)c1ccc2c(c1)N(Cc1ccccc1)C(=O)CS2
  -0.21, 0.95
- C=CCNC(=O)CN1C(=O)C(CC)Oc2ccccc21 (stereo not drawn)
  -0.14, 0.99
- CCCn1c(=N)n(CC(O)COc2cccc(C)c2)c2ccccc21 (stereo not drawn)
  0.04, 1
- Cc1ccc(-c2noc(CN(C(=O)c3cccc(Br)c3)C(C)C)n2)cc1
  -0.69, 0.93
- CCOC(=O)c1cnc2c(Cl)cccc2c1Nc1ccccc1OC
  -0.76, 0.88
- COc1ccc(CC(=O)NC(C)C(c2cccs2)N2CCN(C)CC2)cc1OC (stereo not drawn)
  1.4, 1.1
- CCOC(=O)c1c(C2COc3ccccc3O2)csc1NC(=O)c1ccc(OCC(C)C)cc1 (stereo not drawn)
  4.7, 1.5
- Cc1ccc(-c2nnc(Nc3ccccc3)c3ccccc23)cc1S(=O)(=O)N1CCCCC1
  -4.8, 0.74
- CC(C)(C)c1ccc(C(=O)Nc2ccc(-c3nc4ccccc4[nH]3)cc2)cc1
  1.4, 1.4

# Rewritten bar-delimited: part of the list above.
structure | CBX7 inh z-score | CBX7 inh
Cc1ccc(-c2noc(CN(C(=O)c3cccc(Br)c3)C(C)C)n2)cc1 | -0.69 | 0.93
CCCn1c(=N)n(CC(O)COc2cccc(C)c2)c2ccccc21 (stereo not drawn) | 0.04 | 1
CC(C)(C)c1ccc(C(=O)Nc2ccc(-c3nc4ccccc4[nH]3)cc2)cc1 | 1.4 | 1.4
COc1ccc(CC(=O)NC(C)C(c2cccs2)N2CCN(C)CC2)cc1OC (stereo not drawn) | 1.4 | 1.1

# Additional results
# Value order – CBX7 inh z-score, CBX7 inh
- CN(C)CCNC(=O)CN1C(=O)COc2ccccc21
  0.25, 1
- O=C(NCCCN1CCCC1=O)c1ccc2c(c1)N(Cc1ccccc1)CCS2
  -0.17, 0.87
- Cc1ccc(Cl)c2c1NC(=O)C2(O)CC(=O)c1ccccc1 (stereo not drawn)
  -1, 0.96
- O=C(CCCCn1c(=O)[nH]c2ccccc2c1=O)N1CCN(c2ccc(F)cc2)CC1
  -0.84, 0.7
- CC1C(c2ccccc2)N(C)C(c2ccccc2)CC1(O)c1ccc(F)cc1 (stereo not drawn)
  1.7, 1.2
- COc1ccc(C2C(=O)N(C3CCC(C)CC3)CC(=O)N2Cc2ccccc2)cc1OC (stereo not drawn)
  -0.045, 0.98
- O=C(Cn1cnc2c(nnn2Cc2ccc(F)cc2)c1=O)N1CCCc2ccccc21
  -2.6, 0.84
